From PubChem BioAssay
UCH37 DUB inh: inhibitors of human UCH37 deubiquitinase, primary screen, biochemical, Ub-AMC cleavage, fluorescence; Ubiquitin carboxyl-terminal hydrolase isozyme L5 (Homo sapiens), Q9Y5K5; purified proteasome/UCH37; 330,000 tested, 0.33% active; inhibition, % (no concentration beside the values);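 active = mean of two replicates above 20%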;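 note: 0% = compound-free wells with enzyme and 100% = wells lacking proteasome; stock transfer was 100 nL into about 20 µL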
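System: Proteasome-associated human UCH37 deubiquitinase; Input: 0.15 nM proteasome in added enzyme buffer; Also added: Ub-AMC substrate from 1 µM stock; Incubation: 30 min compound-proteasome preincubation then 25 min substrate reaction, room temperature; Detection: fluorescence, ex 355 nm, em 460 nm; Read-out: % inhibition of Ub-AMC cleavage fluorescence; Benchmarks: no-proteasome and no-compound wells.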
A1 inh: caspase 3/7 activation in MEF A1-2A-BIM cells, primary screen, A1 inhibitor project, cell-based, luminescence, HTS | Caspase-Glo 3/7 luminescence, 3 h; percent of clofoctol response, vehicle zero | caspase activation, % (test concentration not listed) | 330,000 tested, 0.066% active;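 active = over half of replicate activation scores above 10%, or exactly half above 10 with the replicate mean above 10; inconclusive = replicate mean below 10 yet half the replicates above 10; inactive = over half of replicates below 10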;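 note: wells of about 30 µL received 50 nL stock; many hits fall short of the cut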
Ecoli growth: E. coli growth inhibition, primary screen, OD600; AID 1053175, 2014; OD600 absorbance (no concentration beside the values); Escherichia coli growth, 23 h; hits give low values; 330,000 tested, 0.21% active;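 active = OD600 absorbance below the run mean of sample wells minus 3.6 SD, in any replicate, cut at about 0.56 in these data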;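 note: stock transfer was 300 nL into about 60 µL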
HNF4A DNA FP: change in binding of human HNF4A to DNA, primary screen, biochemical, fluorescence polarization, FITC-DNA. activity change, % at 10 µM. 360,000 tested, 0.3% active. 1 h. AID 1224865, 2016. Hepatocyte nuclear factor 4-alpha (Homo sapiens), P41235; in the data active = activity change above about 30%, passing the limit was not always enough;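 note: controls were the assay level and a saturating level of protein; the project sought stronger binding though the title names inhibitors; some compounds called inactive have numbers as strong as hits; positive values seem to mean higher polarization but the record does not say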
B2AR ag: beta2AR agonists driving receptor internalization, primary screen, cell-based, FAP fluorogen, flow cytometry. Am2.2-beta2AR cells; reference of the scale not given here. response, % (test concentration not listed). 340,000 tested, 0.43% active;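 active = response above a set limit, near 3 SD of response in nonfluorescent compounds, cut at about 42% in these data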;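 note: stock transfer was 100 nL into about 11 µL; a reference agonist was the positive control; negative values mostly stem from fluorescent compounds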
LANA-H2B inh: blockers of LANA interaction with H2A/H2B – biochemical, FP readout, HTS, primary screen. 320,000 tested, 0.6% active. cell-free LANA-H2A/H2B peptide, fluorescence polarization. Protein LANA1 (Human herpesvirus 8 type P (isolate GK18)), Q9QR71. AID 2629, 2010. inhibition, % (no concentration beside the values); in the data active = inhibition mostly above about 10%, no sharp cut-off; inactive = mostly below about 6.7%;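 note: stock transfer was 7.5 nL into about 10 µL; 0% = median of vehicle wells and 100% = median of positive control wells; one replicate is shown; the record names a cut of 25% in any replicate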
Target sequence (Q9QR71 whole entry, looked up): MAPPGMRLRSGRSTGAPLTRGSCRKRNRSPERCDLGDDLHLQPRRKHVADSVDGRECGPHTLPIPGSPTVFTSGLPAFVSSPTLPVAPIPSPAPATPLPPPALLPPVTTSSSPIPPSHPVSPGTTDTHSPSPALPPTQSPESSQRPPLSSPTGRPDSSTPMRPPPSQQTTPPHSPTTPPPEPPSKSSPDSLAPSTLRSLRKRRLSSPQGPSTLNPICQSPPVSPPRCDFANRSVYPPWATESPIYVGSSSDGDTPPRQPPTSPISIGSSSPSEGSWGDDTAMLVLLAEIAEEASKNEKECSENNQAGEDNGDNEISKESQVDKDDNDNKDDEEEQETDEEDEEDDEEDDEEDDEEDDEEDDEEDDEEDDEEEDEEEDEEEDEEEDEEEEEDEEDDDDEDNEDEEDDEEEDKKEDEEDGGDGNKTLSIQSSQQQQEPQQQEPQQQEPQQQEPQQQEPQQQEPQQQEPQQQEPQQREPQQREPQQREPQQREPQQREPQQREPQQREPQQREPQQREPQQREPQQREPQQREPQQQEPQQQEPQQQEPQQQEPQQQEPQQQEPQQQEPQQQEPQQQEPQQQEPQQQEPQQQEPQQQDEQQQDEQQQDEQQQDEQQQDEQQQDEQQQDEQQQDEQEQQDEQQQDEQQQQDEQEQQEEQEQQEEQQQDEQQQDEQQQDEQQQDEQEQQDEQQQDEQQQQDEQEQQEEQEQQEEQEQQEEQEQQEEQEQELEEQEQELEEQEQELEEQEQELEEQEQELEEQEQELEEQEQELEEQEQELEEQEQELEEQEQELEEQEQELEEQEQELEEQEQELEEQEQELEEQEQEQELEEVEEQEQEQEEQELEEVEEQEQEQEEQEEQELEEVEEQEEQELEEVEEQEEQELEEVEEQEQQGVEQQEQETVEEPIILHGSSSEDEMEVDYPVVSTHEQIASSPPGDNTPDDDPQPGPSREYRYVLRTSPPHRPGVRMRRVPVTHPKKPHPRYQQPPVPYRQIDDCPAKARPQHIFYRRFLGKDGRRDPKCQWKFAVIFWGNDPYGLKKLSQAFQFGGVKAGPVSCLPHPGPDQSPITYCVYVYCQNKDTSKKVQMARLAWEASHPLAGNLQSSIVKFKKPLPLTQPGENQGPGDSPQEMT
Vif A3G: inhibitors of Vif binding to APOBEC3G peptide, primary screen, biochemical, TR-FRET, GST-Vif 1-94, biotin-A3G peptide, dose response retest (AID 1117319) | 260,000 tested, 0.57% active | Virion infectivity factor (Human immunodeficiency virus type 1 group M subtype B (isolate … | TR-FRET GST-Vif / biotin-A3G peptide binding; higher % means a stronger effect; test concentration not given here; strong numbers were not always called active | inhibition, %, or IC50 in µM where a hit was titrated;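 active = above the screen mean plus three standard deviations and confirmed in dose response; inconclusive = results disagree or hit not tested in dose response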;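 note: Vif residues 1-94 fused to GST binding biotinylated APOBEC3G peptide 110-148; 0% = full assay without inhibitor and 100% = GST in place of GST-Vif; retest series ran down from 100 µM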
Active calls of the source: *; ? = inconclusive; · = no result given.

Screens by letter – A = UCH37 DUB inh; B = A1 inh; C = Ecoli growth; D = HNF4A DNA FP; E = B2AR ag; F = LANA-H2B inh; G = Vif A3G
[1] CCn1c(SCC(=O)Nc2ccccc2N2CCOCC2)nnc1-c1ccccc1O
  A = 1.9	B = -0.3	C = 0.73	D = 4.2	E = 1	F = -0.1	G = 2%
[2] CC(C)=CCC/C(C)=C/CNC(=O)CC1C[C@H](C(=O)N2CCCCC2)[C@@]2(C)c3[nH]c4ccccc4c3CCN2C1=O (stereo partly drawn)
  A = 0.6	B = -0.5	C = 0.73	D = -1.3	E = 0	F = -5.2	G = -5%
[3] CC(NS(=O)(=O)c1ccc(Br)cc1)C(=O)NC1CCCCCC1 (stereo not drawn)
  A = 0.9	B = 0.3	C = 0.73	D = -2.7	E = 11	F = -2.2	G = ·
[4] O=C(O)c1ccc(N/N=C/c2ccc3ncccc3c2)cc1
  A = ·	B = -8.7	C = ·	D = -1.1	E = -7	F = 1.2	G = ·
[5] CSc1nsc(SCc2ccc(F)cc2)n1
  A = 2.8	B = 0.6	C = 0.74	D = 1.1	E = 2	F = 0.6	G = -3%
[6] C(=N\Nc1nc(-c2ccccc2)cs1)/c1ccco1
  A = ·	B = -2.9	C = ·	D = 2.4	E = 1	F = -1.7	G = ·
[7] O=C(O)CCCN1C(=O)C2C3CC(C2C1=O)C1C(c2ccccc2)c2sc(=O)n(-c4ccccc4)c2SC31 (stereo not drawn)
  A = 3.1	B = 1.0	C = 0.69	D = 2.2	E = -4	F = -2.2	G = 3%
[8] O=C(O)c1ccccc1OCCOc1ccccc1
  A = -3.5	B = -0.1	C = 0.74	D = 0.3	E = -7	F = -2.9	G = 20%
[9] CC[C@H](C)C(C(=O)N1CCN(C(=O)OC(C)(C)C)CC1)n1cc(C(CC(C)C)NC(=O)OC(C)(C)C)nn1 (stereo partly drawn)
  A = 1.3	B = 1.0	C = ·	D = 1.1	E = -5	F = -1.2	G = ·
[10] C/C=C(/C)C(=O)Nc1cccc(C2=NOC3(C2)C[C@H](C(N)=O)N(C(=O)c2ccc(Cl)cc2)C3)c1 (stereo partly drawn)
  A = 1.9	B = -1.2	C = ·	D = 1.2	E = -13	F = -0.3	G = 18%
[11] O=C1CN(C(=O)c2ccccc2)C(c2ccc(F)cc2)c2cc(Br)ccc2N1 (stereo not drawn)
  A = 0.5	B = 0.2	C = 0.7	D = -1.1	E = 3	F = -1.4	G = -1%
[12] O=C(OCc1c(Cl)cccc1Cl)c1cccnc1
  A = 0.5	B = 1.4	C = 0.7	D = 0.1	E = -1	F = -2.0	G = ?
[13] Cc1ccc(Cn2nnnc2CN2CCC(NC(=O)c3ccccc3F)CC2)cc1
  A = 4.5	B = 0.1	C = 0.71	D = -0.3	E = -4	F = -68	G = -2%
[14] COc1ccc(CNC(=O)COC(=O)/C=C/c2cccc(Cl)c2)cc1
  A = 2.7	B = -1.3	C = 0.71	D = 4.8	E = 0	F = 1.4	G = 1%
[15] Cc1cc(C(=O)CSc2ccc(F)cc2)cc(C)c1OC(=S)N(C)C
  A = 0.9	B = -0.7	C = 0.72	D = 0.1	E = -1	F = 3.4	G = -5%

Additional results
Screens by letter – A = UCH37 DUB inh; B = A1 inh; C = Ecoli growth; D = HNF4A DNA FP; E = B2AR ag; F = LANA-H2B inh; G = Vif A3G
[16] COc1ccc(CCNC(=O)c2ccc(Cl)cc2Cl)cc1
  A = 3.4	B = -0.1	C = 0.69	D = -2.7	E = 3	F = 2.1	G = 30%
[17] COc1ccc(Cl)cc1S(=O)(=O)N1CCCC(C(=O)NCCc2ccccc2)C1 (stereo not drawn)
  A = 0.5	B = 1.1	C = 0.64	D = 5.1	E = 1	F = -4.9	G = ·
[18] CCCN(CCC)CCNC(=O)c1cc2c(C)nc3ccccc3c2o1
  A = -4.3	B = 0.6	C = 0.73	D = -2.5	E = 1	F = 2.6	G = 2%
[19] S=C(c1cn(CCOc2cccc3ccccc23)c2ccccc12)N1CCCC1
  A = -17	B = 0.4	C = 0.74	D = 6.6	E = 4	F = -5.5	G = -34%
[20] c1csc(-c2nc(N3CCCCC3)no2)c1
  A = -7.6	B = -8.5	C = 0.62	D = -0.7	E = -11	F = -5.2	G = -5%
[21] CCOc1ccccc1N(CC(=O)Nc1ccc2c(c1)OCO2)S(C)(=O)=O
  A = 4.5	B = -0.4	C = 0.69	D = 1.8	E = 8	F = -6.7	G = 15%
[22] COc1ccc(C(=O)N/N=C(\C)Cn2cnc([N+](=O)[O-])n2)cc1
  A = ·	B = 1.0	C = ·	D = -1.2	E = 6	F = ·	G = -3%
[23] CC1CC(C)(C)CC2(C1)NC(=O)N(CC(=O)Nc1ccc(N3CCCCC3)cc1)C2=O (stereo not drawn)
  A = 0.4	B = -0.1	C = 0.71	D = 0.3	E = 8	F = -7.3	G = 3%
[24] Cc1ccc(N(CC(=O)NCc2ccc(F)cc2)C(=O)CCC(=O)Nc2ccccn2)cc1C
  A = 0.7	B = -0.4	C = 0.65	D = -4.3	E = -5	F = 26*	G = ·
[25] CCC(=O)Nc1nonc1-c1nc2ccccc2n1N(C(=O)CC)C(=O)CC
  A = -3.7	B = 0.7	C = 0.75	D = 6.1	E = 31	F = 0.4	G = ?
[26] Oc1ccc(CCNc2c3ccccc3nc3ccccc23)cc1O
  A = ·	B = 0.4	C = ·	D = -20	E = -1	F = 14*	G = ·
[27] COc1cc(C(N)=O)ccc1OCc1ccccc1
  A = 0.6	B = -0.8	C = 0.72	D = 3.3	E = 2	F = -4.5	G = 3%
[28] COc1cc(NC(=O)c2cccnc2Sc2ccc(Cl)cc2)cc(OC)c1OC
  A = 1.3	B = 1.7	C = 0.71	D = 1.5	E = 3	F = -1.8	G = -1%
[29] Cc1nn(C)c(Oc2ccccc2)c1CCNS(=O)(=O)c1ccccc1
  A = 0.8	B = 0.4	C = 0.69	D = -4.7	E = -4	F = 0.2	G = -1%
[30] O=C1CSC(c2ccccc2[N+](=O)[O-])N1CCc1ccccc1 (stereo not drawn)
  A = 3.4	B = 0.4	C = 0.7	D = -0.4	E = 5	F = -2.4	G = ·

Part of the list above in a different format:
[26] Oc1ccc(CCNc2c3ccccc3nc3ccccc23)cc1O
[5] CSc1nsc(SCc2ccc(F)cc2)n1
[24] Cc1ccc(N(CC(=O)NCc2ccc(F)cc2)C(=O)CCC(=O)Nc2ccccn2)cc1C
[16] COc1ccc(CCNC(=O)c2ccc(Cl)cc2Cl)cc1
[25] CCC(=O)Nc1nonc1-c1nc2ccccc2n1N(C(=O)CC)C(=O)CC
[29] Cc1nn(C)c(Oc2ccccc2)c1CCNS(=O)(=O)c1ccccc1

entry no. | 26 | 5 | 24 | 16 | 25 | 29
UCH37 DUB inh | · | 2.8 | 0.7 | 3.4 | -3.7 | 0.8
A1 inh | 0.4 | 0.6 | -0.4 | -0.1 | 0.7 | 0.4
Ecoli growth | · | 0.74 | 0.65 | 0.69 | 0.75 | 0.69
HNF4A DNA FP | -20 | 1.1 | -4.3 | -2.7 | 6.1 | -4.7
B2AR ag | -1 | 2 | -5 | 3 | 31 | -4
LANA-H2B inh | 14* | 0.6 | 26* | 2.1 | 0.4 | 0.2
Vif A3G | · | -3% | · | 30% | ? | -1%

3 compounds already listed, sorted by molecular weight, rising.
Screens by letter – A = UCH37 DUB inh; B = A1 inh; C = Ecoli growth; D = HNF4A DNA FP; E = B2AR ag; F = LANA-H2B inh; G = Vif A3G
[16] COc1ccc(CCNC(=O)c2ccc(Cl)cc2Cl)cc1
  A = 3.4	B = -0.1	C = 0.69	D = -2.7	E = 3	F = 2.1	G = 30%
[30] O=C1CSC(c2ccccc2[N+](=O)[O-])N1CCc1ccccc1 (stereo not drawn)
  A = 3.4	B = 0.4	C = 0.7	D = -0.4	E = 5	F = -2.4	G = ·
[17] COc1ccc(Cl)cc1S(=O)(=O)N1CCCC(C(=O)NCCc2ccccc2)C1 (stereo not drawn)
  A = 0.5	B = 1.1	C = 0.64	D = 5.1	E = 1	F = -4.9	G = ·

New compounds follow:
Screens by letter – A = UCH37 DUB inh; B = A1 inh; C = Ecoli growth; D = HNF4A DNA FP; E = B2AR ag; F = LANA-H2B inh; G = Vif A3G
[31] NC(=O)c1cccc2c1-c1ccccc1/C2=N/NC(N)=S
  A = ·	B = -1.0	C = ·	D = -1.4	E = 5	F = -3.2	G = ·
[32] CCc1noc(C)c1C(=O)Nc1nc(-c2ccc(F)cc2)c(C)s1
  A = 3.2	B = ?	C = 0.71	D = 3.9	E = 14	F = -4.6	G = ·
[33] CC(C)c1c(C(=O)N/N=C/c2ccc(OCc3ccc(F)cc3)cc2)nnn1-c1nonc1N
  A = ·	B = -1.5	C = ·	D = 1.4	E = 1	F = -3.8	G = ·
[34] Cc1cc(NC(=O)Nc2ccc(F)cc2)no1
  A = 1.9	B = -0.4	C = 0.7	D = -1.8	E = -1	F = -8.7	G = -3%
[35] COC(=O)c1ccc(C(=O)OC)c(NC(=S)N2CCN(c3cccc(Cl)c3)CC2)c1
  A = 1.2	B = 0.3	C = 0.74	D = 0.7	E = -6	F = -5.2	G = ?
